WNV protease inh = inhibitors of WNV NS2B-NS3 protease, primary screen, biochemical, fluorogenic substrate. 65,000 tested, 0.18% active. AID 577, 2007. z-score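 (tested at a level between 10 and 100 µM)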. fluorogenic substrate Ex360/Em465; active compounds read low;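 active = z-score at -3 or under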;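 also: score is relative to mean and spread of the compound wells of a plate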
Target sequence (P06935 1371-1501 limits assumed): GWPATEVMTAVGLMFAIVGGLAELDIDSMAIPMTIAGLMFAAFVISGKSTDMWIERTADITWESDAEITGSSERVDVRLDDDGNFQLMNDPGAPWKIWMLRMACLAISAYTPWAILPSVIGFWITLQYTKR
Target sequence (P06935 1502-1679 limits assumed): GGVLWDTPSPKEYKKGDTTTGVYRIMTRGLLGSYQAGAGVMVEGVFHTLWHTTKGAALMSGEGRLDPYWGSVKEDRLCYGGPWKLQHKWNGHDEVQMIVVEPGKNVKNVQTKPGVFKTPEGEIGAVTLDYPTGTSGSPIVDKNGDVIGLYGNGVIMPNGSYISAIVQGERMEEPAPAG
Hsc70 ATP site = Hsc70 inhibitors, probe displacement, primary screen, biochemical, fluorescence polarization (AID 568). one-dose displacement, % at 20 µM; IC50 in µM for titrated hits. Heat shock cognate 71 kDa protein (Homo sapiens). Hsc70 fluorescence polarization, probe displacement; higher % means a stronger effect; strong numbers were not always called active. 83,000 tested, under 10 active;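 active = displacement above 50% without optical interference and an IC50 on retest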;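 also: ATPase domain with a fluorescein-tagged ATP probe; 0% = vehicle and 100% = excess ADP; read after one hour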
MT1-MMP promoter = inhibitors of MT1-MMP promoter transcription, cell-based, luciferase reporter, luminescence (AID 618); MT1-MMP promoter luciferase reporter cells, luminescence; 87,000 tested, 0.62% active; calls from a first round at 10 µM; hits with a dose series show EC50 in µM;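 active = over half of the reporter light lost at 10 µM or EC50 under 50 µM; inactive = the rest and hits that failed the dose series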;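 also: actives suppress MT1-MMP promoter-driven transcription so potencies describe inhibitors; HT1080 fibrosarcoma cells; overnight exposure; toxic or luciferase-blocking compounds were not removed from the actives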
The depositor's hits bear a star; i = inactive; . = not tested or not shown. Some of the compounds tested; count on the stated rates, not on these rows.

SMILES	WNV protease inh	Hsc70 ATP site	MT1-MMP promoter
CS(=O)(=O)N(CC(=O)NCCSCc1c(F)cccc1Cl)c1ccc2c(c1)OCO2	-1	3.4%	i
COc1ccc(NC(=O)CCNS(=O)(=O)c2ccc3c(c2)c(=O)n(C)c(=O)n3C)c(OC)c1	.	2.4%	i
CCOC(=O)CCc1c(C)n(CC)c2cc(-c3ccccc3OC)nn2c1=O	1	-4.6%	i
Cc1cc(NC(=O)CSc2nnc(-c3cccnc3)n2C2CCCCC2C)no1 (stereo not given)	.	-7.0%	i
O=C(NC1CCCCCCC1)c1ccc(S(=O)(=O)N2CCCC2)cc1	.	-1.9%	i
CCOC(=O)c1oc2ccc(OC)cc2c1NC(=O)CN1CCN(C)CC1	.	-0.3%	i
CCn1c(SCC(=O)Nc2nc3ccccc3s2)nnc1-c1ccc(Br)cc1	.	-4.5%	i
CN1CCN(CC(O)COc2ccc(OCC(O)CN3CCN(C)CC3)cc2)CC1 (stereo not given)	0.72	-4.3%	i
CC1CCN(S(=O)(=O)c2cccc(C(=O)NCc3ccco3)c2)CC1	.	1.7%	i
CCCc1cc(=O)n2[nH]c(-c3ccco3)nc2n1	.	2.6%	i
COc1ccc(-c2cc(C(F)(F)F)nc(S(=O)(=O)CCC(=O)N3CCOCC3)n2)cc1	0.07	0.8%	i
COc1cc(C(=O)NCCCN2CCCC2=O)cc(OC)c1OC	.	0.6%	i
CCOc1ccccc1NC(=O)N1CCC(n2nnc3cc(C)ccc32)CC1	-1.9	-3.1%	i
Cc1c(-c2cccs2)[n+](=O)c2c(n1[O-])CCCCC2	0.85	-5.4%	i
Cn1c(=O)cc(OCCCC(=O)NCCCN2CCN(Cc3ccccc3)CC2)c2ccccc21	-0.21	0.9%	i
COc1cc(NS(=O)(=O)c2ccc(NC(=O)COc3ccccc3C)cc2)nc(OC)n1	0.68	-4.3%	i
FC(F)(F)c1cc(-c2ccc(Cl)cc2)nc(NCc2cccnc2)n1	.	1.2%	i
CN(C)S(=O)(=O)c1ccc(N2CCCC2)c(C(=O)Nc2ccc(N3CCOCC3)cc2)c1	.	4.1%	i
O=C(Nc1ccc2oc(-c3cccnc3)nc2c1)c1ccco1	.	-4.2%	i
CCCCn1c(SCC(=O)N2CCC(C(=O)OCC)CC2)nc2cc(S(N)(=O)=O)ccc21	.	7.0%	i
CCCC1(C(=O)OCC)NC(c2ccc(OC)cc2OC)C2C(=O)N(c3ccc4c(c3)OCCO4)C(=O)C21 (stereo not given)	.	-0.2%	i
CC1(C)CC(=O)C2=C(C1)Nc1[nH]n(-c3ccccc3)c(=O)c1C2c1ccc2c(c1)OCO2 (stereo not given)	0.01	5.1%	i
CCOC(=O)c1ccc(Cn2cnc3ccccc3c2=O)cc1	0.52	-6.1%	i
CCn1c(SCC(=O)c2cccs2)nnc1-c1ccco1	0.08	-6.3%	i
O=C(Nc1ccc2c(c1)C(=O)N(C1CCCCC1)C2=O)C1CCCO1 (stereo not given)	0.09	5.9%	i
Further compounds follow.
SMILES	WNV protease inh	Hsc70 ATP site	MT1-MMP promoter
OC(COc1c(Cl)cc(Cl)cc1Cl)CN1CCCCC1 (stereo not given)	1.5	1.5%	i
Cc1cnc(NC(=O)CSc2ncn(-c3ccccc3)n2)s1	.	0.6%	i
O=C(O)C1CCCCC1C(=O)OCCCCOC(=O)C1CCCCC1C(=O)O (stereo not given)	-0.56	-2.8%	i
Cc1cc(NC(=O)CCCC(=O)N(CC(=O)NC2CCCCC2)c2ccccc2)no1	1	1.6%	i
O=C(Nc1nc2ccccc2n1CCN1CCCCC1)c1ccco1	0.74	6.8%	i
CCOC(=O)c1cnc(SCC(=O)Nc2cccc(OC)c2)nc1N	.	-1.5%	i
CCC(=O)Nc1ccc(C(=O)Cn2nc(C(=O)O)c3ccccc3c2=O)cc1	-1.1	-6.3%	i
COc1cccc(OC)c1OCCCCN1CCCC1	-0.46	4.7%	i
CCN(CC)S(=O)(=O)c1cccc(-c2nnc(SCC(=O)c3cc(C)n(C)c3C)o2)c1	-0.1	-4.4%	i
CCCS(=O)(=O)NCCc1cc2c(OC)ccc(OC)c2[nH]c1=O	0.41	5.3%	i
CS(=O)(=O)N(CC(N)=O)c1cccc(Br)c1	.	1.6%	i
O=C(C1CCC(=O)N1Cc1cccnc1)N1CCN(c2ccc(F)cc2)CC1 (stereo not given)	0.24	-2.8%	i
COc1cccc(Cn2c(=S)[nH]c3ccc(N4CCOCC4)cc3c2=O)c1	-0.01	1.2%	i
Cc1ccccc1C(=O)NC1CC(C)(C)NC(C)(C)C1	-0.02	-3.2%	i
C=CCn1c(=N)c(C(=O)NCCCOC)cc2c(=O)n3cc(C)ccc3nc21	3.1	0.9%	i
COC(=O)c1cc(OC)c(OC)cc1NC(=O)C1CCC(=O)N1S(=O)(=O)c1ccc(C)cc1 (stereo not given)	0.53	0.6%	i
Cc1oc(-c2ccc(Cl)cc2)nc1CN1CCC(C(=O)NCc2cccnc2)CC1	1.3	-1.1%	i
c1ccc2c(-n3cccn3)cccc2c1	0.14	-0.8%	i
COc1ccc(CC(=O)OCC(=O)Nc2c(C)n(C)n(-c3ccccc3)c2=O)cc1	-0.25	2.0%	i
O=C(CSc1nc2c(sc3ccccc32)c(=O)n1Cc1ccco1)NCC1CCCO1 (stereo not given)	-0.44	0.7%	i
Cc1cc2cc(CNC(=O)CC(C)C)ccc2n1C	-1.2	-0.1%	i
CCNC(=O)CN(c1ccc(Cl)cc1)S(=O)(=O)c1ccccc1	.	-4.4%	i
CCOC(=O)c1[nH]c(C)c(C(=O)N(C)Cc2ccccc2)c1C	-0.23	1.0%	i
COc1ccc(N2CCN(C(=O)Cc3nn(C)c(=O)c4ccccc34)CC2)cc1	0.03	2.0%	i
O=C(Nc1nnc(COc2ccccc2)s1)c1ccco1	-0.83	-7.8%	i
Continued:
SMILES	WNV protease inh	Hsc70 ATP site	MT1-MMP promoter
Cc1cc(C)n(-c2ccc(C(=O)OCn3nnc4ccccc4c3=O)cc2)n1	-0.63	2.0%	i
CCN(CC)CCNC(CC(=O)Nc1ccc(Cl)cc1Cl)C(=O)O (stereo not given)	.	3.1%	i
CCOc1ccccc1N(CC(=O)Nc1ccc(C)cc1)S(C)(=O)=O	1.1	-2.7%	i
Cc1cccc(OCCCC(=O)NC(C)C)c1	.	1.7%	i
O=C(CN1CCN(CCC(=O)Nc2ccccc2F)CC1)Nc1ccc(Cl)cc1	1	3.2%	i
O=C(NC1CCCC1)C(c1ccccn1)N(C(=O)c1csnn1)C1CC1 (stereo not given)	-1.1	-4.7%	i
O=C(Nn1cnnc1)c1ccccc1-c1ccccc1	-1.2	-0.2%	i
CCCCOC(=O)Nc1ccc(S(=O)(=O)Nc2nc(C)cc(C)n2)cc1	0.59	-4.6%	i
CC(=O)Nc1cccc(Oc2nc(C)cc(C)c2C#N)c1	-0.33	3.1%	i
O=C(CCn1cccc1)NCCc1ccc(Cl)cc1	-0.29	-2.6%	i
N#CCn1c(C2CCCCC2)nc2ccccc2c1=O	-0.32	-5.0%	i
Cc1ccc2oc(-c3ccc(NC(=O)CC(C)C)cc3)nc2c1	-0.35	0.0%	i
CNC(=O)CCC(=O)Nc1ccc(C(=O)OC)cc1	0.59	6.2%	i
COC(=O)C(NC(C)=O)(Nc1nc2c(C)cc(C)cc2s1)C(F)(F)F (stereo not given)	.	34%	i
Cc1cnc(NC(=O)CN2CCN(c3ccccn3)CC2)s1	-0.51	-0.1%	i
CC1(C)Cc2noc(N)c2C(C)(C)N1OC(=O)c1scc2c1OCCO2	0.57	-0.7%	i
CCCC(=O)Nc1nc(-c2ccc3c(c2)CCN3S(C)(=O)=O)cs1	.	-0.7%	i
O=C(NCc1cccnc1)c1cccc(C(F)(F)F)c1	0.35	-4.5%	i
Cc1ccc(S(=O)(=O)CC(=O)NC2CC2)cc1	.	1.7%	i
N#CC(C#SN)=C1CCCCC1	0.05	-1.2%	i
O=C(Cn1[nH]c(=O)c2ccccc2c1=O)Nc1cccc(-c2nnc3n2CCCCC3)c1	0.19	5.7%	i
Cc1ccccc1C(=O)N1CCC(C(=O)O)CC1	.	0.3%	i
CCOC(=O)N1CC=C2C(C#N)=C(N)C(C#N)(C#N)[C@H](c3ccccc3OCC)[C@H]2C1	-0.45	-3.1%	i
CN(C)/C=C1/N=C(c2ccccc2)OC1=O	.	4.6%	i
CCSC1=C(C#N)C(c2ccccc2OC)CC(=O)N1 (stereo not given)	0.44	2.9%	i
Later entries:
SMILES	WNV protease inh	Hsc70 ATP site	MT1-MMP promoter
CN1CCN(C2=C(Cl)C(=O)N(c3cccc(Cl)c3)C2=O)CC1	-1.1	-5.1%	i
CC(C)CCNC(=O)C1CCCN1C(=O)NC1CCCCC1 (stereo not given)	.	-4.4%	i
N#Cc1nc(COc2ccc(Br)cc2)oc1NCCCn1ccnc1	-0.47	-0.6%	i
OC(Cn1cncn1)(c1ccccc1)c1ccccc1	.	-0.1%	i
Cc1nc(NC(C)c2ccccc2)c2oc3ccccc3c2n1 (stereo not given)	-1.5	0.2%	i
CCCc1cc(C(=O)Nc2cc(C)nn2-c2ccccc2)no1	-2.5	-0.3%	i
COc1ccc(Nc2nccc3c2nnn3C)cc1	-0.1	-8.3%	i
CCN(CC)CCCNC(=O)Cn1ncc2c(=O)oc3ccc(C)cc3c21	-0.27	1.6%	i
CCOC(=O)N1CCN(C(=O)c2ccc3c(c2)sc2nc(-c4ccccc4)cn23)CC1	0.3	0.1%	i
COCC(=O)Nc1ccc(S(=O)(=O)Nc2cc(C)nc(C)n2)cc1	.	1.4%	i
O=C(c1ccccc1)N1CCCOC1c1ccccc1 (stereo not given)	0.56	-1.7%	i
O=C(CC1OC(=O)c2ccccc21)NC1CCCCC1 (stereo not given)	-0.53	-2.3%	i
Cc1ccc(C2=NNC(=O)C(c3ccc(Cl)cc3)C2)cc1 (stereo not given)	.	2.5%	i
COc1cccc(C2C(C(N)=O)=C(C)Nc3nc(CCCO)nn32)c1OC (stereo not given)	-0.13	6.7%	i
O=S1(=O)CCC(NCC2CCCO2)C1 (stereo not given)	-0.88	-1.6%	i
O=C(c1cc2c(=O)oc3ccccc3c2s1)N1CCOCC1	-0.92	1.8%	i
NC(=O)c1sc2nc3c(c(-c4ccc(Cl)cc4)c2c1N)CCCC3	.	2.1%	i
CCOC(=O)N1CCN(S(=O)(=O)c2cc(-c3nn4c(C)nnc4c4ccccc34)ccc2C)CC1	.	0.5%	i
Cc1oc(-c2ccc(Cl)cc2)[n+]([O-])c1C	0.55	-0.8%	i
CCN1C(=O)C(CC(=O)NCc2ccc(Cl)cc2)N(CC)C1=O (stereo not given)	0.39	-3.2%	i
COc1cc2c(cc1OC)-c1cc(NC3CCCCCC3)nc(=O)n1CC2	0.26	-3.1%	i
COc1ccc(N2Cc3cccc(C(=O)N4CCN(C(=O)c5ccco5)CC4)c3C2=O)cc1	-1	0.0%	i
Cc1csc2nc(CSc3ccc(Cl)cc3)cn12	-0.25	2.2%	i
COc1ccc(C(=O)NCc2cn3ccsc3n2)cc1OC	0.4	5.4%	i
Clc1ccccc1-c1nn2c(-c3ccccn3)nnc2s1	-1.5	-11%	i

Molecules from the list above containing a furan ring, fused or not (10):
SMILES	WNV protease inh	Hsc70 ATP site	MT1-MMP promoter
CCOC(=O)c1oc2ccc(OC)cc2c1NC(=O)CN1CCN(C)CC1	.	-0.3%	i
CC1CCN(S(=O)(=O)c2cccc(C(=O)NCc3ccco3)c2)CC1	.	1.7%	i
CCCc1cc(=O)n2[nH]c(-c3ccco3)nc2n1	.	2.6%	i
O=C(Nc1ccc2oc(-c3cccnc3)nc2c1)c1ccco1	.	-4.2%	i
CCn1c(SCC(=O)c2cccs2)nnc1-c1ccco1	0.08	-6.3%	i
O=C(Nc1nc2ccccc2n1CCN1CCCCC1)c1ccco1	0.74	6.8%	i
O=C(CSc1nc2c(sc3ccccc32)c(=O)n1Cc1ccco1)NCC1CCCO1 (stereo not given)	-0.44	0.7%	i
O=C(Nc1nnc(COc2ccccc2)s1)c1ccco1	-0.83	-7.8%	i
Cc1nc(NC(C)c2ccccc2)c2oc3ccccc3c2n1 (stereo not given)	-1.5	0.2%	i
COc1ccc(N2Cc3cccc(C(=O)N4CCN(C(=O)c5ccco5)CC4)c3C2=O)cc1	-1	0.0%	i

(next part)
SMILES	WNV protease inh	Hsc70 ATP site	MT1-MMP promoter
CC1CCN(C(=O)C2CCN(C(=O)c3cc4sccc4n3Cc3ccc(F)cc3)CC2)CC1	-1.3	-3.0%	i
COC(=O)c1cc(Br)c(=O)n(-c2nccs2)c1	0.51	1.5%	i
COc1cc(C)nc(Oc2ccc(OCCOc3ccc(C)cc3)nn2)n1	-8.5*	-4.5%	i
Cc1ccccc1OC(=O)C1C(c2ccccc2)C(C(=O)O)C1c1ccccc1 (stereo not given)	.	0.3%	i
CC(=O)Nc1ccc(NC(=O)c2ccccc2N(C)S(C)(=O)=O)cc1	-0.27	-0.3%	i
C=CCn1c(SCc2csc(C)n2)nc2sc3c(c2c1=O)CCCCC3	0.27	-1.8%	i
O=C(NCc1ccccc1)c1cccc(NC(=O)c2ccco2)c1	.	2.3%	i
O=C(c1ccccc1)N(CCN1CCOCC1)C1(C(=O)Nc2ccccc2)CCCCC1	2.1	9.5%	i
Cc1cccc(C)c1-n1c(C)cc(/C=C2\NC(=O)NC2=O)c1C	.	-2.5%	i
CC(C)NC(=O)C(=O)NCCN1CCN(S(=O)(=O)c2ccc(Cl)cc2)CC1	.	-3.3%	i
Cc1nn(C)c(C(=O)N2CCc3ccccc32)c1Cl	.	3.0%	i
